# Screens from PubChem.
# BJeLR viability – BJeLR cell viability loss; BJeLR (HRASV12) viability, CellTiter-Glo ATP luminescence, 48 h; reference of the scale not given here; hit rate 0.17% among 300,000; inhibition, % (test concentration not listed);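 active means replicate mean above 50%; inconclusive means above 50% but judged a plate artefact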;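 further: 50 nL library stock added to about 25 µL; numbers are from one replicate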
# PrP 5UTR inh – inhibition of PrP 5' UTR reporter expression; cell-based PrP 5' UTR mRNA reporter, plate reader; inhibition, % (test concentration not listed); hit rate 0.35% among 340,000; AID 488862;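 active means every replicate at 50% or more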;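 further: 0 = median of the neutral control wells; tested in H4 reporter cells; numbers are from one replicate; inactives centre near -14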
# Bead autofluor – flagged as autofluorescent in microsphere protease counterscreen. compound autofluorescence counterscreen, microsphere flow cytometry; active compounds read high. AID 624483. fluorescence intensity (concentration not given with the values). hit rate 3.1% among 360,000;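 active means at least 3 SD above the mean of all compounds, about 16000 in these data; inconclusive means too few beads counted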;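 further: 100 nL of 1 mM stock went into each well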
# Sa RN4220 lethal – kills Staphylococcus aureus RN4220; S. aureus RN4220 growth, OD600, 16 h; inhibition, % (concentration not given with the values); hit rate 0.33% among 330,000;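 active means z-score of -3 or lower and OD600 up to 0.18 on both plates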;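 further: plate controls were untreated cells for no effect and reference antibiotic for full effect; stock transfer was 100 nL into about 80 µL; one replicate is shown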
# ugtP null kill – kills S. aureus RN4220 lacking UgtP | S. aureus RN4220 ugtP deletion, OD600 growth, 16 h; some inactives read as strong as hits | growth inhibition, % (no concentration beside the values) | hit rate 0.54% among 330,000;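 active means z-score under -3 and OD600 up to 0.15 on both plates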;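 further: plate controls were untreated wells for no effect and antibiotic for full effect; wells of about 80 µL received 100 nL stock; the first replicate is given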
# Mtb hypoxia inh – inhibitors of hypoxia-regulated fluorescent reporter in Mycobacterium tuberculosis | AID 1159583 | hit rate 0.1% among 300,000 | M. tuberculosis hypoxia-regulated fluorescent reporter, fluorescence | fluorescence inhibition, % (test concentration not listed);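 active means 35 to 45% if threefold the growth effect, above 45% if 1.5-fold the growth effect; inactive means the rest, general growth blockers included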;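 further: wells of about 50 µL received 100 nL stock; 0% = vehicle wells and 100% = reference inhibitor wells; whole bacteria with a GFP reporter of the hypoxia response; strong numbers were not always called active; many hits fall short of the cut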
# Mtb hypoxia inh growth – further read-out of Mtb hypoxia inh, marked with its call; growth inhibition, %; measured here: M. tuberculosis growth (absorbance);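 0% = vehicle and 100% = reference antibiotic; read after six days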
# Active calls of the source: *; ? = inconclusive; . = not tested or not shown.
SMILES,BJeLR viability,PrP 5UTR inh,Bead autofluor,Sa RN4220 lethal,ugtP null kill,Mtb hypoxia inh,Mtb hypoxia inh growth
COc1ccc(Cc2nnc(NC(=O)C3CC(=O)N(CCc4ccc(F)cc4)C3)s2)cc1OC (stereo unspecified),-8,3,4684,.,.,.,.
O=C(NCC(=O)N1CCN(c2ncc(C(F)(F)F)cc2Cl)CC1)c1ccc(Br)o1,3,-16,6092,-3.4,10,2,7
CC(C)(C)c1nc(SCC(=O)N2CC(=O)Nc3ccccc32)c2ccccc2n1,-8,-16,4018,0.5,7,7,5
C=CCN1C=C2C(=O)C(C)(OC(=O)CCC(=O)OC)C(=O)C(Br)=C2C=C1c1ccc(OC)cc1 (stereo unspecified),3,-15,3799,.,.,.,.
CCCCC(=O)Nc1ccccc1C(=O)N1CCOCC1,10,-18,?,5.6,13,14,2
CCOC(=O)Nc1ccc2c(CNC(C)c3ccccc3OC)cc(=O)oc2c1 (stereo unspecified),-9,2,3967,-2.1,-4,-11,-7
Cc1cc(N/N=C(/CCC(=O)O)C(=O)O)nc2ccccc12,10,-17,2518,.,.,.,.
CC(C)CCOP(=O)(c1ccccc1)c1ccccc1,2,-21,2115,4.2,0,-4,-7
COCCCn1c(=O)c2ccccc2n(CC(=O)N2CCCc3ccccc32)c1=O,-1,-5,5782,-0.2,1,-12,3
Cn1c(N)c(S(=O)(=O)NCc2ccc(F)cc2)c(=O)n(C)c1=O,-11,-34,4713,1.2,2,9,1
O=C(NCC1CCCO1)Nc1cc(Cl)cc(Cl)c1 (stereo unspecified),.,-17,2022,4.3,-9,-4,4
CCN(CCCNC(=O)c1ccc2c(c1)NC(=O)CN2C)c1cccc(C)c1,-2,-12,5188,6.5,6,3,10

# The last 6 entries of the section above are carried over, then new ones follow:
SMILES,BJeLR viability,PrP 5UTR inh,Bead autofluor,Sa RN4220 lethal,ugtP null kill,Mtb hypoxia inh,Mtb hypoxia inh growth
Cc1cc(N/N=C(/CCC(=O)O)C(=O)O)nc2ccccc12,10,-17,2518,.,.,.,.
CC(C)CCOP(=O)(c1ccccc1)c1ccccc1,2,-21,2115,4.2,0,-4,-7
COCCCn1c(=O)c2ccccc2n(CC(=O)N2CCCc3ccccc32)c1=O,-1,-5,5782,-0.2,1,-12,3
Cn1c(N)c(S(=O)(=O)NCc2ccc(F)cc2)c(=O)n(C)c1=O,-11,-34,4713,1.2,2,9,1
O=C(NCC1CCCO1)Nc1cc(Cl)cc(Cl)c1 (stereo unspecified),.,-17,2022,4.3,-9,-4,4
CCN(CCCNC(=O)c1ccc2c(c1)NC(=O)CN2C)c1cccc(C)c1,-2,-12,5188,6.5,6,3,10
Brc1ccc(-c2ncc3ccccn23)cc1,-14,-19,3322,11,6,9,12
COCCn1c(C)cc(C(=O)COc2nc3ccccc3nc2C)c1C,-1,-14,3662,-1.2,-1,14,3
Cc1ccc(S(=O)(=O)N2CCOCC2)cc1C(=O)OCC(=O)NC1CCCCC1,.,-10,.,-3.7,0,-1,-3
Cn1nc(C(=O)Nc2ccc3c(c2)OCO3)c2ccccc2c1=O,3,5,4726,4.9,10,2,0
O=C(/C=C/c1ccco1)Nc1nc(-c2ccccc2)cs1,0,-28,8939,-5.1,11,3,3
COc1ccccc1C(=O)NCC(=O)OCc1csc(-c2ccccc2)n1,22,-37,9877,1.8,3,10,7
CC(=O)c1c(C)[nH]c(C(=O)Nc2ccccn2)c1C,15,-88,5541,-0.5,-5,5,2
CCN(CC)C(=O)NC(c1ccc(C)c(F)c1)C(Cl)(Cl)Cl (stereo unspecified),-2,-10,2449,-1.6,-3,9,5
CCCN(CC1CC1)C(=O)COC(=O)c1ccc2c(c1)C(=O)N(c1ccc(OCC)cc1)C2=O,-2,-14,4528,.,.,.,.
COC(=O)C1=C(c2ccc(S(C)(=O)=O)cc2)C[C@@H]2CC[C@H]1N2C(=O)NCCNC(C)=O,8,-9,3588,.,.,.,.
N#Cc1ccccc1NC(=O)CSc1ccc([N+](=O)[O-])cn1,12,-17,4725,11,-4,8,6
Fc1cccc(Nc2nc(-c3ccncc3)nc3ccccc23)c1,-14,-15,2581,2.1,-8,-4,-15

# The final 2 entries of the section above lead into the next:
SMILES,BJeLR viability,PrP 5UTR inh,Bead autofluor,Sa RN4220 lethal,ugtP null kill,Mtb hypoxia inh,Mtb hypoxia inh growth
N#Cc1ccccc1NC(=O)CSc1ccc([N+](=O)[O-])cn1,12,-17,4725,11,-4,8,6
Fc1cccc(Nc2nc(-c3ccncc3)nc3ccccc23)c1,-14,-15,2581,2.1,-8,-4,-15
CC(=O)NC(CC(=O)N(C)C1CCCCC1)c1ccccc1 (stereo unspecified),-1,-10,3138,5.0,9,4,3
CN(Cc1ccncn1)C(=O)C1CCC(=O)N(Cc2cccc(C(F)(F)F)c2)C1 (stereo unspecified),0,-17,5675,1.3,3,3,3
CON1C(=O)C(=O)N(OC)C(C)(C)C1(C)C,-6,-15,2149,2.5,2,0,7
CC1CN(S(=O)(=O)c2ccc(NC(=O)c3ccco3)cc2)CC(C)O1 (stereo unspecified),-2,-24,3153,3.5,5,0,1
Cc1ccc(S(=O)(=O)N(CC(=O)N2CCOCC2)CC(=O)N2CCOCC2)cc1,7,-12,3693,4.0,-1,3,10
COc1ccc(/C=N/Nc2ncnc3sc4c(c23)CCCC4)cc1OC,3,-32,2739,.,.,.,.
CCC(C)(C)c1ccc(OCCCC[n+]2cccc(C)c2C)c(C(C)(C)CC)c1,57*,-3,.,101*,100*,.,.
COc1cc(OC)cc(C(=O)NC(C)c2ccc(Br)cc2)c1 (stereo unspecified),1,-11,1971,-3.2,7,5,6
COc1ccc(CCN)cc1O,-8,-3,4213,5.2,-1,4,4
COc1cc(S(=O)(=O)NCCCN2CCOCC2)ccc1Cl,3,-50,7949,3.5,-1,1,5
CC1CCC(NC(=O)CN(C)S(=O)(=O)c2ccc3c(c2)c(=O)n(C)c(=O)n3C)CC1 (stereo unspecified),-8,-38,5724,3.3,-3,11,1
Cc1c(C(=O)NCc2ccccn2)oc2ccccc12,-13,-29,10864,0.7,-6,-8,-2
Cc1ccc(-n2c(C)nnc2SCC(=O)NC2CC2)cc1,5,-12,6176,4.4,1,7,3
Cc1cc(NC(=O)c2cccc(S(=O)(=O)N3CCCCCC3)c2)n(-c2ccccn2)n1,-1,-3,2194,-0.1,8,.,.
CC(C)[C@H](NC(=O)NCCc1ccccc1)C(=O)O,4,-16,3537,-6.7,-1,14,9
Cc1ccc(NC(=O)NNC(=O)c2cc3ccccc3cc2O)cc1,1,-13,4898,4.5,1,9,5
COc1ccc(NC(=O)Cc2nc3ccccc3[nH]2)cc1,-10,-13,?,1.4,-11,-2,7
CN(C(=O)CSc1nc2c(c(=O)[nH]1)CCC2)c1ccccc1,-1,-24,4890,-3.3,-15,-5,10
CCc1nc2ccccc2c(C(=O)O)c1C,-4,-16,22245*,3.3,4,0,3
C=CCOc1ccccc1CNCCCN1CCOCC1,1,-22,8363,6.1,12,4,7
Cc1ccc(-c2nc(CS(=O)CC(=O)NCc3ccccn3)c(C)o2)cc1 (stereo unspecified),-9,-11,5709,-10.0,-4,8,14
CC(=NNC(=O)Cn1c(-c2ccccn2)nc2ccccc21)c1cccc(O)c1,.,.,.,5.5,8,-1,3
CCCOC(=O)c1ccc(Nc2cc(C)nc3ncnn23)cc1,2,-14,4413,1.2,2,.,.
COc1ccc(CC(=O)NNC(=O)c2cccs2)cc1,6,-8,2556,-1.0,2,-15,-3

# Among those listed so far, these contain a COOH group:
SMILES,BJeLR viability,PrP 5UTR inh,Bead autofluor,Sa RN4220 lethal,ugtP null kill,Mtb hypoxia inh,Mtb hypoxia inh growth
Cc1cc(N/N=C(/CCC(=O)O)C(=O)O)nc2ccccc12,10,-17,2518,.,.,.,.
CC(C)[C@H](NC(=O)NCCc1ccccc1)C(=O)O,4,-16,3537,-6.7,-1,14,9
CCc1nc2ccccc2c(C(=O)O)c1C,-4,-16,22245*,3.3,4,0,3

# More results.
SMILES,BJeLR viability,PrP 5UTR inh,Bead autofluor,Sa RN4220 lethal,ugtP null kill,Mtb hypoxia inh,Mtb hypoxia inh growth
COC(=O)c1ccc(CSc2nc3cc(Cl)ccc3s2)o1,4,-17,4371,12,26,.,.
S=c1[nH]nc(-c2cccc3ccccc23)n1-c1cccnc1,4,5,4325,4.0,11,5,2
CC(C)CN(C(=O)c1ccc(N2CCCC2=O)cc1)c1c(N)n(Cc2ccccc2)c(=O)[nH]c1=O,.,-14,3755,-2.5,-6,-6,-8
Cc1nc2ccccc2c2c1C(=O)N(CCC1=CCCCC1)C2=O,7,.,.,-0.8,-8,-2,-1
O=C(Nc1nnc(N=Cc2ccco2)s1)c1ccc(F)cc1,.,.,.,-2.3,-8,1,7
C=CCc1cccc(C=Nc2ncccc2O)c1O,.,.,.,5.4,1,-2,7
CCC(Cc1ccccc1)OC(=O)c1ccccc1C(=O)O (stereo unspecified),.,-22,3346,4.2,7,8,8
CNC(=S)N/N=C(\C)c1ccc(C)c(C)c1,4,-5,2025,.,.,.,.
CCCCC1OC23CCCCC2C(C#N)(C#N)C1(C#N)C(=N)O3 (stereo unspecified),-2,-3,10739,2.9,-2,-4,-1
Cc1ccc(O)c(/C=N/NC(=O)CN2CCCC2)c1,3,2,3849,.,.,.,.
CCOC(=O)C1=C(C)NC(C)=C(C(=O)OCC)C1/C=C/c1ccccc1OC,-2,0,2545,3.5,6,1,1
CS(=O)(=O)N1CCc2ccc(NC(=O)C3CCCO3)cc2C1 (stereo unspecified),-5,-6,6379,-3.8,-8,-6,3
COc1ccc(S(=O)(=O)N(C)C[C@@H]2Oc3c(NS(=O)(=O)c4cn(C)cn4)cccc3C(=O)N([C@@H](C)CO)C[C@@H]2C)cc1,.,-42,2910,15,18,3,9
O=C(c1ccccc1Br)N1CCN(Cc2ccc3c(c2)OCO3)CC1,-3,-8,4149,-1.7,11,2,2
CCOC(=O)c1c(NC(=O)COC(=O)c2nccnc2N)sc2c1CCC2,.,-17,4824,0.2,-4,4,6
O=C(Nc1ccc(F)cc1)N1CCn2c(nc3ccccc32)C1,-2,.,9692,3.5,2,4,2
COc1ccc(CCNC(=O)c2cc3c(=O)n(C)c4ccccc4c3n2C)c(OC)c1,11,-8,4851,2.7,-8,5,3
O=C(NC1CCS(=O)(=O)C1)C1CCCCN1S(=O)(=O)c1ccc(Cl)cc1 (stereo unspecified),3,-54,7997,5.2,4,12,7
CCCCN(C(=O)C1CCN(C(=O)c2ccccc2C)CC1)c1c(N)n(CCCC)c(=O)[nH]c1=O,-2,-4,6104,1.1,0,4,12
CCCNC(=O)Cn1nc(C)n2c(cc3cc(F)ccc32)c1=O,0,-17,3510,-2.2,-3,-8,3

# Rewritten with two lines to a compound: part of the list above
# Value order: BJeLR viability | PrP 5UTR inh | Bead autofluor | Sa RN4220 lethal | ugtP null kill | Mtb hypoxia inh | Mtb hypoxia inh growth
- CC1CCC(NC(=O)CN(C)S(=O)(=O)c2ccc3c(c2)c(=O)n(C)c(=O)n3C)CC1 (stereo unspecified)
 : -8 | -38 | 5724 | 3.3 | -3 | 11 | 1
- Cc1c(C(=O)NCc2ccccn2)oc2ccccc12
 : -13 | -29 | 10864 | 0.7 | -6 | -8 | -2

# Compounds were not picked by outcome. About 4% of those tested had a hit in this group.
